Source: PubChem (several laboratories)
CSC inhib – cancer stem cell inhibition | AID 2717 | 300,000 compounds, 1.1% hits | inhibition, % at 7.5 µM | cancer stem cell-like cells viability, luminescence;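 active = mean at 75% or more and at least half the replicates too; tested in HMLE shEcad cells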;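 note: 0% = median of negative and 100% = median of positive control wells; the first replicate is given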
HIV Env fusion – blocks HIV Env-driven cell-cell fusion. HeLa-JRFL Env/CEM21 cell fusion, luciferase. 360,000 compounds, 1.1% hits. inhibition, % at 12.3 µM. AID 651610;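 active = mean replicate inhibition score of at least 50 and every replicate individually at or above 50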;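 note: 0% = plate neutral controls and 100% = maraviroc near 300 nM; one replicate is shown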
Yeast UUG start – alters start codon recognition fidelity in yeast; S. cerevisiae UUG-firefly luciferase reporter, luminescence/redox ratio; activity score, % at 18.7 µM; 350,000 compounds, 0.13% hits; AID 602363;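 active = replicate mean at a twofold rise or more, about +100% in these data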;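 note: firefly luciferase made from a UUG start codon reports start codon fidelity; reporter light over untreated wells divided by growth signal over untreated wells; some hits fall short of that in this replicate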
Rce1 inhib – yeast Ras-converting enzyme inhibition | yeast membranes, quenched prenylated peptide cleavage fluorescence | calls only | 290,000 compounds, 0.27% hits | AID 2563;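 active = fall in fluorescence gain of 50% or more versus controls, with final raw signal at or below 3038400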;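 note: plate controls were neutral control wells for no effect and wells lacking membranes for full effect; tested at 10 µM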
PABP FP inh – blocks human PABP binding to poly(A) RNA; P11940; fluorescence polarization; inhibition, % at 35 µM; 290,000 compounds, 1% hits; AID 2014;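 active = 50% or more with normal probe brightness, or confirmed in later tests; about a fifth of its hits are not listed in these tables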;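 note: calls also rest on retests at 20 µM and on dose response follow-up; controls were probe without protein and protein plus probe with vehicle; some compounds called inactive have numbers as strong as hits; many hits fall short of the cut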
Target sequence (P11940 whole entry, looked up): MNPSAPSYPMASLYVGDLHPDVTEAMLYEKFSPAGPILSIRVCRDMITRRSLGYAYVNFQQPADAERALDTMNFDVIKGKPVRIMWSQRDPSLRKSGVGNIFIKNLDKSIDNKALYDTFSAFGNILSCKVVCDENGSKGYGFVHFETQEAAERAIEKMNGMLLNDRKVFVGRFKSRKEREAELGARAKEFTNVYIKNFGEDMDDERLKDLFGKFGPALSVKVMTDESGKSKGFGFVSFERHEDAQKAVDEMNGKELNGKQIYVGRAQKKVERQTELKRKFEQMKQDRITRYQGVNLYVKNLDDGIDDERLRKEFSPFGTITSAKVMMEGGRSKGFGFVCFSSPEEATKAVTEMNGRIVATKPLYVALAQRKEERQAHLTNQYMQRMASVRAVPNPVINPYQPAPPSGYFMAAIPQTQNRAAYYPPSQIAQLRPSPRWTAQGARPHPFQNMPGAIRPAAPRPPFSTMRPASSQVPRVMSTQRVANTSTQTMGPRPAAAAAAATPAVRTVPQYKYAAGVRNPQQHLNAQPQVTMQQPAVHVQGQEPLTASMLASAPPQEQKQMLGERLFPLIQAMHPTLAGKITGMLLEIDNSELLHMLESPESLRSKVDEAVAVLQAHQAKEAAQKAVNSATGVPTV
MT1-MMP act inh – MT1-MMP (human) activation inhibition; P50281; HT1080 RFP-PRO-GFP cells, GFP/RFP ratio fluorescence, overnight; percent of plate control window, DMSO zero; GFP/RFP ratio change, % at 20 µM; 360,000 compounds, 0.061% hits; AID 651647;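 active = GFP/RFP ratio change of at least 30% with cell ATP level not reduced by more than half and red fluorescence within 50% of control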; note: strong numbers were not always called active
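Assay system: HT1080 RFP-PRO-GFP cells. Benchmarks: DMSO vehicle wells and RFP-L50D-GFP reporter cell wells. Times: overnight cell settling, then overnight compound exposure, 37 °C, 5% CO2. Compound: 20 µM single dose, 1% DMSO. Read-out basis: GFP/RFP fluorescence ratio.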
eIF4H inh – inhibitors of RNA binding by human eIF4H; inhibition, % at 35 µM; eIF4H fluorescence polarization binding assay; Q15056; 290,000 compounds, 0.94% hits;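 active = 50% or more with normal probe brightness, or confirmed in later tests; about a fifth of its hits are not listed in these tables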;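 note: calls also rest on retests at 20 µM and on dose response follow-up; 0% = protein and probe with vehicle and 100% = probe without protein; strong numbers were not always called active; many hits fall short of the cut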
MT1-MMP act inh RFP – second read-out of MT1-MMP act inh, no call of its own (marks repeat the call); RFP signal change, %; measured here: RFP expression control read;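 0 = vehicle wells; hits needed this value within 50% of zero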
* = called active by the depositor; i = inactive; · = not tested or not shown; & = joins results of further samples. Some of the compounds tested. The share of hits here may be higher or lower than overall.

Each structure is followed by: CSC inhib, HIV Env fusion, Yeast UUG start, Rce1 inhib, PABP FP inh, MT1-MMP act inh, MT1-MMP act inh RFP, eIF4H inh
- CCn1c(CC(=O)Nc2ccccc2OC)nnc1SCC(=O)Nc1ccccc1F
    -18, 11, -2, i, 7, 1, 7, 1
- CCc1ccc(S(=O)(=O)Nc2cccc(C3OCCCO3)c2)cc1
    -8, 8, ·, i, 3, 2, -7, -11
- CC(C)C(=O)Nc1ccc(C(=O)NNC(=S)NC(=O)c2ccco2)cc1
    10, 3, ·, i, 9, 1, 3, 12
- COCCn1c(SCC(=O)Nc2cc(C)on2)nc2ccccc21
    -1, 1, ·, i, -6, -2, 0, -10
- Cc1cc(=O)[nH]c(SCC(=O)Nc2cc(S(=O)(=O)N3CCCC3)ccc2Cl)n1
    -14, -2, -9, i, -6, -1, 3, -8
- O=C(CSc1nnc(CNc2ccc(F)cc2)n1Cc1ccccc1)N1CCOCC1
    -20, -18, -9, i, 13, 0, 2, -7
- O=C(CSc1ccccc1)Nc1cccc(S(=O)(=O)N2CCOCC2)c1
    -9, i, -25, ·, ·, 0, -3, ·
- Cc1ccc(N2CC(C(=O)Nc3nnc(C(C)C)s3)CC2=O)cc1 (stereo not given)
    -7, -20, -8, i, 2, 1, -1, -4
- CCOc1ccc(N2C(=O)c3ccc(C(=O)OCc4c(C)noc4C)cc3C2=O)cc1
    -6, 5, -17, i, 5, 4, 10, 1
- COc1ccc(N(CC(=O)NC2CC3CCC2C3)S(=O)(=O)c2ccc(C)cc2)cc1OC (stereo not given)
    7, 21, -16, i, 6, 0, 1, -3
- Cc1ccc(CCC(=O)Nc2ccc(C#N)cc2)o1
    -5, 3, -10, i, -3, -2, 2, 2
- CCN(C[C@H]1N[C@@](Cc2ccccc2)(C(=O)OC)[C@H]2C(=O)N(C)C(=O)[C@@H]12)C(=O)c1ccc(C)cc1
    ·, -11, 15, ·, ·, -3, 2, ·
- N#CCn1nnc(-c2ccc3c(c2)OCO3)n1
    5, -32, -9, i, 0, 3, 0, 2
- Cc1cccc(NC(=O)[C@H](Cc2ccccc2)NC(=O)[C@@H]2Cc3ccccc3CN2)c1
    -18, -21, -9, i, 1, 1, 4, 2
- Clc1cc2c(nn1)Nc1ccccc1S2
    -4, 8, ·, i, -7, -2, -1, 3
- CCOCC(=O)Nc1ccccc1C(=O)OCC
    -4, ·, -11, i, -1, 5, 4, -5
- CCc1noc(C)c1C(=O)OCC(=O)Nc1c(F)cccc1F
    -8, 6, 7, i, ·, -1, 4, ·
- COC(=O)C1=C(C)Nc2nnnn2C1c1ccco1 (stereo not given)
    9, ·, -4, i, 0, 8, 2, 0
- Cc1ccc(NC(=O)CCC(=O)c2ccccc2)cc1
    ·, -7, 5, ·, ·, 4, 4, ·
- COc1cc2nc(-c3ccccc3C)oc(=O)c2cc1OC
    -14, 3, -5, i, -3, 4, 4, -7
- COc1ccc(C(=O)NC(=O)CSc2nnc(-c3ccco3)n2-c2ccccc2)cc1
    7, ·, -9, ·, 4, 2, 0, -2
- Cc1cccc(NC(=O)CN2CCN(C(=O)c3cnn(Cc4ccccc4)c3)CC2)c1C
    ·, -65, -5, ·, ·, 8, -3, ·
- O=C(Cc1ccc(F)cc1)Nc1nc(-c2ccc(F)cc2)cs1
    -5, -7, -9, i, 8, -1, -10, -3
- Cc1ccc(NC(=O)CN2C(=O)NC3(CCCCCC3)C2=O)cc1Cl
    30, 1, -14, ·, ·, 9, 6, ·
- O=C(NCC(c1ccco1)N1CCN(c2ccc(F)cc2)CC1)C1CCCCC1 (stereo not given)
    2, ·, 1, i, ·, 4, -5, ·
- C#CCOCCOCCOCCNc1nc(N2CCN(C(=O)Cn3cc(CCCN=C(N)N)nn3)CC2)nc(N2CCN(C(=O)[C@H](CCCCN)n3cc(CC(C)O)nn3)CC2)n1 (stereo not given in full)
    -24, 5, -14, ·, ·, 0, 1, ·
- NC(=O)c1ccc(NC(=O)C2CCCO2)cc1 (stereo not given)
    6, -60, -3, i, -8, -11, -1, -4
- O=c1[nH]c(SCc2cccc(F)c2)nc2ccccc12
    5, -6, ·, i, 2, 2, 0, -9
- CC(Sc1nc2ccccc2o1)C(=O)O (stereo not given)
    -2, -110, -30, ·, 1, 0, 1, 9
- CN(c1ccccc1)c1nc(N)c([N+](=O)[O-])c(NC2CCCCC2)n1
    6, 5, -3, i, -4, 2, -3, -7
- CC(C)c1nnc(NC(=O)CS(=O)(=O)c2ccccc2)s1
    2, 8, -11, i, 2, 2, 4, 4
- CC1CCN(C(=O)N2c3ccccc3Sc3ccccc32)CC1
    0, ·, 4, i, -4, -1, -10, 3
- COc1ccc(-c2ccc3[nH]c4c(c3c2)CCN2C[C@H]3[C@H](C)ON(C)[C@H]3C[C@@H]42)cc1
    ·, 25, -23, ·, ·, -11, 1, ·
- COc1ccccc1C(=O)NCCC(=O)Nc1ccc(S(=O)(=O)N2CCCC(C)C2)cc1 (stereo not given)
    ·, -5, 1, ·, ·, 1, -3, ·
- CC(C)C[C@@H](CO)N1CCN(Cc2ccc(Br)cc2)CCC1=O
    -3, 32, -18, i, -2, 6, -12, 0
- O=S(=O)(Nc1cccc2ccccc12)c1ccccc1F
    -6, -15, 5, i, 9, 0, 4, -9
- Cc1ccc2[nH]c3c(=O)n(N)c(C)nc3c2c1
    1, 10, -6, i, -13, ·, ·, -9
- COC(=O)C1CCN(C2CN(Cc3ccc(C)cc3)S(=O)(=O)C2)CC1 (stereo not given)
    ·, -34, 2, ·, ·, 3, 4, ·
- CC(NC(=O)C(C)N1C(=O)C2C3CC(C(Br)C3Br)C2C1=O)c1ccccc1 (stereo not given)
    1, 5, -4, i, 1, -4, 1, 0
- CC(Sc1nnc(-c2ccncc2)n1-c1ccc(F)cc1)C(=O)NC1CC1 (stereo not given)
    -7, -2, -14, ·, ·, -4, 2, ·
- O=C(C1CCCCC1)N1CCc2ccccc21
    -9, 15, 2, i, -2, 7, 6, -4
- Cc1cc(Cl)c(OCCN2C(=O)NC(C)(C)C2=O)c(Br)c1
    -9, 10, 10, i, 3, 5, 1, 0
- CCCCCCCn1c(=N)n(CC(=O)c2ccco2)c2ccccc21
    -2, -5, 4, i, 0, -18, -13, -18
- CC1(C)CC(=O)C(N=Nc2ccc(F)cc2)=C(O)C1
    2, 5, ·, i, 10, 0, -1, -2
- C=CCn1c2ccccc2c(=O)c2cc(C#Cc3ccsc3)ccc21
    20, ·, ·, i, 5, ·, ·, 43
- C=CCn1c(SCCNC(C)=O)nc2cc(-c3ccccc3)sc2c1=O
    -1, -32, -18, i, -5, 2, -6, -2
- CCn1c(=O)c2c(nc(SCC(=O)NCC3CCCO3)n2C)n(C)c1=O (stereo not given)
    -9, ·, -5, i, -8, 4, 0, -8
- COc1ccccc1NC(=O)c1ccccc1-c1ccccc1C(=O)O
    0, 5, -13, i, -2, -2, -1, -6
- O=C(COC(=O)c1ccc2c(c1Cl)C(=O)c1ccccc1C2=O)NC1CCCCC1
    5, -95, ·, i, -5, 6, 3, 18
- COc1cccc(CNC(=O)c2ccc(Cl)c(NC3=NC4CS(=O)(=O)CC4S3)c2)c1 (stereo not given)
    -8, -13, -14, i, -2, 5, 4, -6
- O=C(OCC(=O)N1CCOCC1)c1ccccc1O
    -9, -34, -12, i, 3, 1, 2, 1
- O=C(Nc1cc([N+](=O)[O-])ccc1N1CCOCC1)c1cccs1
    -13, -278, -4, i, 4, -4, -3, -1
- COc1ccc(NC(=O)CS(=O)c2ccc(Cl)c(Cl)c2)cc1 (stereo not given)
    1, -16, 4, i, 2, -1, 1, -2
- CCOC(=O)c1nn(-c2ccc(C)cc2)c(=O)cc1OCC(=O)Nc1cccc(C)c1
    13, 31, -13, i, ·, 0, 0, ·
- CCOc1ccc(C(=O)Nc2c3c(nn2-c2ccc(C)cc2)CS(=O)C3)cc1OCC (stereo not given)
    -18, -9, -7, ·, -8, 3, 4, -7
- CCOC(=O)C1=C(C)N=C2SC(C)C(=O)N2C1c1ccccc1 (stereo not given)
    -6, -1, -4, i, 0, 0, -4, -11
- CCOC(=O)Cn1c(CN2CCOCC2)nc2c1c(=O)[nH]c(=O)n2C
    -2, 4, -2, i, 12, -5, 4, -11
- CCn1nnnc1SCC(=O)N1c2ccccc2CCc2ccccc21
    ·, -22, 7, i, -5, 3, 4, -1
- O=C(CNC(=O)c1ccc(F)cc1)N/N=C/c1cc(Br)ccc1OC(=O)/C=C/c1ccco1
    9, 8, ·, i, 21, 9, 2, 44
- CS(=O)(=O)N1CCN(c2ccccc2NC(=O)CSc2nnc(-c3ccco3)o2)CC1
    -9, ·, ·, i, -4, 0, 3, 6
- CCn1c(SCC(=O)Nc2cccc(S(=O)(=O)N(C)c3ccccc3)c2)nnc1C1CC1
    ·, 10, -3, ·, ·, 18, -5, ·
- CC(C)CN1CCN(CCCOC(=O)Nc2cccc3ccccc23)CC1C (stereo not given)
    ·, -15, -4, ·, ·, 3, 1, ·
- CCCCNc1c(-c2ccc(OC)c(SC(C)CC)c2)nc2cc(C)ccn12 (stereo not given)
    ·, 40&28, -6, ·, ·, 13&26, -23&-19, ·

A draw from above in order of length of the SMILES, low to high.
Each structure is followed by: CSC inhib, HIV Env fusion, Yeast UUG start, Rce1 inhib, PABP FP inh, MT1-MMP act inh, MT1-MMP act inh RFP, eIF4H inh
- CCn1nnnc1SCC(=O)N1c2ccccc2CCc2ccccc21
    ·, -22, 7, i, -5, 3, 4, -1
- CC(C)CN1CCN(CCCOC(=O)Nc2cccc3ccccc23)CC1C (stereo not given)
    ·, -15, -4, ·, ·, 3, 1, ·
- O=C(Nc1cc([N+](=O)[O-])ccc1N1CCOCC1)c1cccs1
    -13, -278, -4, i, 4, -4, -3, -1
- CCCCNc1c(-c2ccc(OC)c(SC(C)CC)c2)nc2cc(C)ccn12 (stereo not given)
    ·, 40&28, -6, ·, ·, 13&26, -23&-19, ·
- CS(=O)(=O)N1CCN(c2ccccc2NC(=O)CSc2nnc(-c3ccco3)o2)CC1
    -9, ·, ·, i, -4, 0, 3, 6
- CCn1c(SCC(=O)Nc2cccc(S(=O)(=O)N(C)c3ccccc3)c2)nnc1C1CC1
    ·, 10, -3, ·, ·, 18, -5, ·
